TRPV1 PAM = human TRPV1 potentiation; Q8NER1; TRPV1-expressing cells, Fluo-8 calcium influx, capsaicin EC20 potentiation; host cell line not named in the record; control for the full effect not named in the record; potentiation, % at 8.33 µM; 320,000 compounds, 0.02% hits; active means potentiation above 80%; inconclusive means 30% to 80%; inactive means below 30%; further: 0% is about no effect
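Fluo-8 calcium influx in TRPV1-expressing cells, kinetic read (ex 480/em 520 nm). Compound added and read 3 min for agonist activity, followed by capsaicin at EC20 final and 2 min further read for enhancement.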
Sfp PPTase inh = inhibitors of Bacillus subtilis Sfp phosphopantetheinyl transferase | Q9F4F7 | Biochemical Sfp PPTase activity, qHTS | Potency, µM, for the others: max response, negative = inhibition, hits mostly inhibitors | 310,000 compounds, 3.5% hits; active means well fitted inhibition curve with a large enough effect; inconclusive means small, poorly fitted or top-dose-only effect, or another doubt; inactive means no such curve, though single readings can be large or run the other way;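 further: the enzyme is Sfp with the accession as filed and its product quenches rhodamine fluorescence; potency means the concentration at half of the fitted maximal effect; 0% = enzyme reaction without inhibitor and -100% = no enzyme wells; top concentration of the series not given in the record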
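With Hepes-Na pH 7.6 buffer containing 10 mM MgCl2, Sfp (15 nM) modified BHQ-2-YbbR (12.5 uM) using rhodamine-CoA (5 uM). Two reads 30 minutes apart at 525/598 nm yielded each well's rate.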
D2 ag = agonists of human D2 dopamine receptor (beta-arrestin); activation, % (test concentration not listed); P14416; AID 624465; 360,000 compounds, 0.084% hits; DiscoveRx PathHunter D2 beta-arrestin, luminescence, 90 min; 100% = 57 uM dopamine signal; in the data active = activation above about 40%; inconclusive = about 15% to 40%; inactive = below about 15%; further: compound concentration not given in the record; the text of the record calls up to 30% inactive
Target sequence (P14416 whole entry, looked up): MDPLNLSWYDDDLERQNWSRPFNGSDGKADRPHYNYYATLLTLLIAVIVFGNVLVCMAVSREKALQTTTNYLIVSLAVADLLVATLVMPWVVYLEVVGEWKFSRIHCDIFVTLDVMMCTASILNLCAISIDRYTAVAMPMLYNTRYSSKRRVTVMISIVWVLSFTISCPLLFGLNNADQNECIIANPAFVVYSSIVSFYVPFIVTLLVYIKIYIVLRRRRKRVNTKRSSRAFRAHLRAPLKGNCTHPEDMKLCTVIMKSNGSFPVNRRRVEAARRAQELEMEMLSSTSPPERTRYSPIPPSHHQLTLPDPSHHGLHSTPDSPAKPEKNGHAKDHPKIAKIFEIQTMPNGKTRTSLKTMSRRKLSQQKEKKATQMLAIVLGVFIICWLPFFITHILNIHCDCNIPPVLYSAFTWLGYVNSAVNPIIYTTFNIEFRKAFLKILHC
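Agonist mode: compounds alone added to overnight-plated D2 PathHunter cells for 90 min at 37 C, with 57 uM final dopamine (EC100) defining full response. Beta-arrestin recruitment detected by chemiluminescent reagent, read after 1 h at ambient temperature.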
D2 PAM = human D2 receptor positive allosteric modulation | 360,000 compounds, 0.23% hits | P14416 | potentiation, % (concentration not given with the values) | DiscoveRx D2 beta-arrestin cells, luminescence, 90 min; 100% = 57 uM dopamine signal; active = potentiation of 50% or more; inconclusive = 30% to 50%; inactive = 30% or less;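 further: tested on top of an EC20 dose of dopamine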
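D2 cells co-treated with compound plus 50 nM dopamine (EC20) for 90 min at 37 deg C to detect potentiation. Beta-arrestin recruitment was read as enzyme-fragment luminescence after 1 h at ambient temperature. Full response was set by 57 uM dopamine.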
Six1-Eya2 blk = inhibitors of human Six1/Eya2 interaction; activity change, % (test concentration not listed); AID 651725; 360,000 compounds, 0.56% hits; AlphaScreen GST-Six1/His-Eya2 binding, biochemical; stronger effect = lower value; control for the full effect not named in the record; in the data active = activity change below about -65%; inconclusive = about -30% to -65%; inactive = above about -30%; further: on the % scale 0 is the no-effect control and ±100 the full control effect
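AlphaScreen with GST-Six1 and His-Eya2 (5X mix: 250 nM and 500 nM), glutathione donor and nickel acceptor beads; buffer 50 mM Tris pH 8.0, 300 mM NaCl, 1 mM TCEP; 1 h at 37 C in the dark.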
PINK1 modulator = PINK1 expression modulation | PINK1 immunofluorescence, high-content cytometry, 24 h | Potency, µM (top dose mostly 76.6 µM), inactives show top-dose activation (PINK1 increase), most hits filed as activators | 410,000 compounds, 0.2% hits | AID 624263; active = well fitted activation curve with a large enough effect; inconclusive = small, poorly fitted or top-dose-only effect; inactive = flat fitted curve, though single readings scatter; cell line not stated here;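 further: potency means the concentration at half of the fitted maximal effect; % of control where 0% means no effect; nearly all actives have a fitted effect of over 65% in size; a mitochondrial uncoupler was the plate control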
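PINK1 protein level read as immunofluorescence by microplate cytometer in a fixed, stained stable cell line after 24 h exposure to five compound concentrations, with CCCP as control.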
CtBP-E1A blk = inhibitors of CtBP/E1A interaction | AlphaScreen GST-E1A/His-CtBP binding, 1536-well; stronger effect = lower value; control for the full effect not named in the record | activity change, % (no concentration beside the values) | 340,000 compounds, 0.49% hits | AID 651724; in the data active means activity change below about -65%; inconclusive means about -30% to -65%; inactive means above about -30%; further: on the % scale 0 is the no-effect control and ±100 the full control effect
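AlphaScreen with 125 nM GST-E1A and 125 nM His-CtBP (5X stocks) in Tris pH 8.0, 300 mM NaCl, BSA, Tween 20, TCEP. Compounds preincubated 2 h at 37 deg C, then glutathione donor/nickel acceptor beads added for 1 h at 37 deg C in dark.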
The depositor's hits bear a star; u = inconclusive; x = not tested or not shown; & = joins results of further samples; [ ] = remark or other dose.

SMILES | TRPV1 PAM | Sfp PPTase inh | D2 ag | D2 PAM | Six1-Eya2 blk | PINK1 modulator | CtBP-E1A blk
COc1ccc(NS(=O)(=O)c2cccc(C(=O)N3CCN(Cc4cc(OC)ccc4OC)CC3)c2)cc1 | 10 | 1% | -2.5 | -18 | -7 | 2.8% | -23
CC1CN(C(=O)C2CCCN2S(=O)(=O)c2ccc(Cl)cc2)CC(C)O1 (stereo unspecified) | 17 | 0% | -2.3 | -8 | 6 | 0.4%[38.3 µM] | 0
Cn1cccc1C(=O)OCC(=O)Nc1ccc2[nH]c(=O)[nH]c2c1 | x | x | -3.4 | -3 | -9 | 2.5% | 1
CCOC(=O)c1[nH]c(=O)[nH]c1CSc1ccccn1 | -5 | u | -0.1 | -5 | -1 | 1.8%[38.3 µM] | 1
Cc1ccc(CSc2sc(C(=O)c3ccccc3)c(N)c2C#N)cc1 | 2 | -7% | -3.7 | 21 | 9 | 4.0% | 28
Cn1nnnc1SCCNC/C=C/c1ccccc1 | 1 | -1% | 0.6 | -11 | 3 | -1.8%[38.3 µM] | 0
O=S(=O)(Nc1cccnc1)c1ccc2c(c1)OCCO2 | -13 | 7% | -4.0 | -12 | 6 | -2.4% | 6
COc1ccc(OCC(O)CNC(=O)Nc2cc(C)cc(C)c2)cc1 (stereo unspecified) | -12 | 0% | -5.5 | -27 | -1 | 2.9% | x
CCc1cccc(NC(=O)Cn2ncn3c(cc4ccccc43)c2=O)c1 | -15 | -6% | 0.8 | -16 | 3 | x | 1
COc1ccc(CC(=O)Nc2cccc(Cl)c2C)cc1S(=O)(=O)N1CCOCC1 | -6 | x | -2.5 | 1 | -7 | 0.2% | -16
CCCCCCCCC(=O)NNC(=O)c1c(O)c2ccccc2n(CC)c1=O | 8 | 7% | 3.1 | -5 | 2 | u | -15
O=C(O)c1ccccc1-c1nc2ccccc2c(=O)[nH]1 | -1 | 14% | -1.7 | -4 | 7 | -0.6% | 2
COc1ccc(OC)c(Nc2ncnc3ccccc23)c1 | -11 | -6% | -3.1 | 4 | -1 | -1.5% | -4
CCOC(=O)C1C(=O)OC(C)(C)C1C(C)C(=O)c1ccccc1 (stereo unspecified) | -11 | 16% | 1.3 | 0 | 4 | -1.4% | 5
Cc1cc(Cl)c(S(=O)(=O)N2CCN(c3ccccn3)CC2)cc1OCC(=O)NC1CCCCC1 | 2 | -1% | 4.3 | -7 | -8 | 1.2% | 3
OCCN1CCN(c2cc(-c3ccccc3)c3ccccc3n2)CC1 | 15 | -23% | -7.5 | -41 | -2 | 0.5% | -4
CC(C)(C)NC(=O)Cn1c(SCC(N)=O)nc2ccccc21 | -2 | 5% | -2.3 | 20 | -3 | 0.8% | 0
Cc1cccc(N(CC(=O)NCCc2ccccc2)C(=O)c2csnn2)c1 | -6 | 3% | -3.0 | -10 | 6 | -2.4% | 3
O=C(Nc1ccc(-c2csc(-c3ccccc3)n2)cc1)c1ccccc1Cl | -6 | -1% | -1.2 | 6 | -1 | x | 6
Cc1cc(C)cc(NC(=O)C2CCCN(S(=O)(=O)c3cnc[nH]3)C2)c1 (stereo unspecified) | -10 | 2% | -4.9 | -7 | 11 | 0.6% | 9
CCOC(=O)N1CCC(NC(=O)CS(=O)(=O)Cc2nc(-c3ccccc3C)oc2C)CC1 | 5 | 11% | -0.6 | -2 | 3 | -1.3% | 4
Cc1nc2ccccc2c(=O)n1CCCO | 10 | 16% | -4.7 | -12 | 4 | -1.0% | 4
CC(Oc1ccccc1)c1ccn[nH]1 (stereo unspecified) | 8 | -8% | -3.3 | -4 | 7 | -1.3% | 16
CC12CCC(C(=O)Nc3ccccc3-n3cccc3)(CC1=O)C2(C)C (stereo unspecified) | -21 | -10% | -3.2 | -7 | -1 | 1.8% | -9
CN1CCC(N(C)C(=O)c2ccc(Cl)c(S(=O)(=O)Nc3cc(Cl)ccc3Cl)c2)CC1 | 4 | x | 13 | -2 | -1 | 0.8% | -13
COc1ccc2nc(NC(=O)C3CCN(S(=O)(=O)c4cccs4)CC3)sc2c1 | 8 | 18% | 1.5 | 17 | -16 | -4.0%[38.3 µM] | -26
Nc1c(N2CCOCC2)cc(Cl)c2nonc12 | -19 | -9% | -4.4 | -11 | -4 | 11%[38.3 µM] | u
O=[N+]([O-])c1ccc(N2CCN(c3ccccc3O)CC2)c(Cl)c1 | -2 | -1% | 3.6 | -1 | -29 | 0.0% | u
CCC(C)Cn1c(C)nc2ccccc21 (stereo unspecified) | -2 | 0% | 3.5 | 2 | 4 | -0.2% | 7
CCN1C[C@@H]2[C@@H]3C(=O)N(Cc4ccccc4)C(=O)[C@@H]3[C@](CC)(C(=O)OC)N2C1=NCc1ccccc1 | x | x | -1.3 | x | -4 | -0.4% | 5
Cc1ccc(S(=O)(=O)Nc2ccc(NC(=O)c3c(F)c(F)c(F)c(F)c3F)cc2)cc1 | -4 | 14% | 0.4 | 13 | 0 | 2.5% | x
CC(C)N(Cc1nc2ccccc2[nH]1)C(C)C | -3 | -3% | -4.9 | -4 | 8 | 3.9% | 7
O=C(NCc1cccnc1)C1CCN(S(=O)(=O)N2CCOCC2)CC1 | -13 | 9% | -2.8 | 2 | 1 | 0.1%[38.3 µM] | -3
COc1ccc(/C(C)=N/OCC(=O)Nc2nc3ccccc3s2)cc1 | 14 | -1% | -4.6 | 3 | 7 | 1.0% | -14
c1ccc2c(c1)OCC(c1csc3ncnc(N4CCOCC4)c13)O2 (stereo unspecified) | 19 | 0% | 4.4 | 5 | 5 | x | 8
C=C(C)C1CC=C(C)/C(=N/NC(=O)CCC(=O)Nc2ccccc2Cl)C1 (stereo unspecified) | 4 | 8% | 0.0 | -3 | -6 | 2.0% | 0

Single records, from the list above. Screens in order: TRPV1 PAM | Sfp PPTase inh | D2 ag | D2 PAM | Six1-Eya2 blk | PINK1 modulator | CtBP-E1A blk
CCOC(=O)C1C(=O)OC(C)(C)C1C(C)C(=O)c1ccccc1 (stereo unspecified) is listed as -11 | 16% | 1.3 | 0 | 4 | -1.4% | 5
O=C(O)c1ccccc1-c1nc2ccccc2c(=O)[nH]1 is listed as -1 | 14% | -1.7 | -4 | 7 | -0.6% | 2

Other compounds
SMILES | TRPV1 PAM | Sfp PPTase inh | D2 ag | D2 PAM | Six1-Eya2 blk | PINK1 modulator | CtBP-E1A blk
O=C(NCc1ccc(F)cc1F)[C@@H]1CCCN1C(=O)[C@@H]1CCCN1C(=O)c1ccccc1 | x | x | x | x | 1 | -1.1% | 5
CCOC(=O)CC(=O)Nc1ccn[nH]1 | 19 | 8% | -2.3 | -14 | 6 | 1.0% | x
CC(Sc1ccc(Cl)cc1)C(=O)NNC(=O)c1ccccc1O (stereo unspecified) | 11 | 22% | -1.9 | -3 | 1 | 2.5% | -4
O=C(NNC(=O)c1ccc(Br)cc1)c1ccncc1 | -26 | 21% | -2.5 | -14 | -1 | -1.5% | x
COC(=O)c1cc2sccc2n1Cc1nc(-c2cccc(Cl)c2)oc1C | -3 | 14% | 0.0 | -5 | -1 | 0.8%&2.7% | 5
Cc1ccc(S(=O)(=O)N(C)Cc2ccc(C(=O)N/N=C/c3ccc(OC(F)F)cc3)cc2)cc1 | -8 | -6% | -4.7 | -19 | -4 | 0.6% | -9
CN(CCC1CCOCC1)C(=O)C1CCC(=O)N(CCc2cccc(F)c2)C1 (stereo unspecified) | 0 | 13% | -4.5 | -23 | 3 | -0.1% | 15
O=C(c1cn[nH]c1)N1CCc2c([nH]c3ccccc23)C1c1c(F)cccc1Cl (stereo unspecified) | 6 | -15% | -3.4 | 0 | -9 | 7.9% | -10
CCOC(=O)C1C(=O)Oc2ccc3ccccc3c2C1C1CCOC1=O (stereo unspecified) | 3 | -7% | -2.9 | -4 | -5 | -3.2% | 1
CCOC(=O)c1[nH]c(CN2CCN(c3ccc(OC)cc3)CC2)c(C(=O)OCC)c1C | 28 | 8% | -4.6 | -12 | u | 4.5% | u
Cc1nn(-c2ccccc2)c(Cl)c1C(=O)OCC(=O)NCCc1ccc(S(N)(=O)=O)cc1 | 5 | x | -7.6 | -12 | -20 | 6.6% | -5
CCOc1ccc(S(=O)(=O)Nc2ccc(C(=O)NCCCN3CCCC3=O)cc2)cc1 | -5 | x | -3.1 | -1 | 8 | -3.4% | -1

Part of the list above, set out differently:
smiles	TRPV1 PAM	Sfp PPTase inh	D2 ag	D2 PAM	Six1-Eya2 blk	PINK1 modulator	CtBP-E1A blk
COc1ccc(NS(=O)(=O)c2cccc(C(=O)N3CCN(Cc4cc(OC)ccc4OC)CC3)c2)cc1	10	1%	-2.5	-18	-7	2.8%	-23
CC1CN(C(=O)C2CCCN2S(=O)(=O)c2ccc(Cl)cc2)CC(C)O1 (stereo unspecified)	17	0%	-2.3	-8	6	0.4%[38.3 µM]	0
Cn1cccc1C(=O)OCC(=O)Nc1ccc2[nH]c(=O)[nH]c2c1	x	x	-3.4	-3	-9	2.5%	1
CCOC(=O)c1[nH]c(=O)[nH]c1CSc1ccccn1	-5	u	-0.1	-5	-1	1.8%[38.3 µM]	1
Cc1ccc(CSc2sc(C(=O)c3ccccc3)c(N)c2C#N)cc1	2	-7%	-3.7	21	9	4.0%	28
Cn1nnnc1SCCNC/C=C/c1ccccc1	1	-1%	0.6	-11	3	-1.8%[38.3 µM]	0
O=S(=O)(Nc1cccnc1)c1ccc2c(c1)OCCO2	-13	7%	-4.0	-12	6	-2.4%	6
COc1ccc(OCC(O)CNC(=O)Nc2cc(C)cc(C)c2)cc1 (stereo unspecified)	-12	0%	-5.5	-27	-1	2.9%	x
CCc1cccc(NC(=O)Cn2ncn3c(cc4ccccc43)c2=O)c1	-15	-6%	0.8	-16	3	x	1
COc1ccc(CC(=O)Nc2cccc(Cl)c2C)cc1S(=O)(=O)N1CCOCC1	-6	x	-2.5	1	-7	0.2%	-16
CCCCCCCCC(=O)NNC(=O)c1c(O)c2ccccc2n(CC)c1=O	8	7%	3.1	-5	2	u	-15
O=C(O)c1ccccc1-c1nc2ccccc2c(=O)[nH]1	-1	14%	-1.7	-4	7	-0.6%	2
COc1ccc(OC)c(Nc2ncnc3ccccc23)c1	-11	-6%	-3.1	4	-1	-1.5%	-4

Screens from PubChem.

An unsorted share of the library (roughly 3.7% active in at least one column).
